Screening data: PubChem, several laboratories
Mtb betalactam: beta-lactam sensitization of Mtb H37Rv. M. tuberculosis H37Rv growth with meropenem, percent inhibition; hits of this screen are not shown here. inhibition, % at 25 µM. 330,000 tested, 0.27% active;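 active = about 74% or more and at least 40 points above the plate without the antibiotic, then above 30% in a dose series; inconclusive = first-round hits that could not be retested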;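 also: growth measured after seven days incubation then overnight dye step; 0% = bacteria only wells and 100% = bacteria with antibiotic; twin plates without the antibiotic show which effects depend on it; some results filed as inactive read as strong as hits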
Mtb growth: M. tuberculosis H37Rv growth inhibitors, H37Rv strain (AID 1626) | M. tuberculosis H37Rv growth inhibition; higher % means a stronger effect | inhibition, % at 10 µM; hits with a dose series show IC50 in µM | 220,000 tested, 0.95% active;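 active = confirmed in a dose series; inconclusive = inhibition above 80% but not taken into the dose series; inactive = below 80% or under 30% at every dose of the series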;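 also: bacteria incubated seven days before Alamar blue readout; 0% = bacteria only wells and 100% = bacteria with antibiotic wells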
YopH PTP inh: YopH (Yersinia) phosphatase inhibition; AID 898; 140,000 tested, 0.16% active; fluorescence Ex485/Em525; inhibition, %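 (about 10 µM by stock and volumes)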;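 active = inhibition of 50% or more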;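 also: controls were vehicle for no effect and minimum signal wells for full effect; inactives centre near -20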
RecA splice inh: blocks M. tuberculosis RecA intein splicing; P9WHJ3; cell-free RecA intein splicing, fluorescence; inhibition, %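 (about 9 µM by stock and volumes)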; 290,000 tested, 0.75% active; AID 2221; in the data active = inhibition above about 30%; inconclusive = no clear call, values can overlap the other calls;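 also: 0% = vehicle wells and 100% = reference inhibitor control wells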
Target sequence (P9WHJ3 whole entry, looked up, canonical isoform): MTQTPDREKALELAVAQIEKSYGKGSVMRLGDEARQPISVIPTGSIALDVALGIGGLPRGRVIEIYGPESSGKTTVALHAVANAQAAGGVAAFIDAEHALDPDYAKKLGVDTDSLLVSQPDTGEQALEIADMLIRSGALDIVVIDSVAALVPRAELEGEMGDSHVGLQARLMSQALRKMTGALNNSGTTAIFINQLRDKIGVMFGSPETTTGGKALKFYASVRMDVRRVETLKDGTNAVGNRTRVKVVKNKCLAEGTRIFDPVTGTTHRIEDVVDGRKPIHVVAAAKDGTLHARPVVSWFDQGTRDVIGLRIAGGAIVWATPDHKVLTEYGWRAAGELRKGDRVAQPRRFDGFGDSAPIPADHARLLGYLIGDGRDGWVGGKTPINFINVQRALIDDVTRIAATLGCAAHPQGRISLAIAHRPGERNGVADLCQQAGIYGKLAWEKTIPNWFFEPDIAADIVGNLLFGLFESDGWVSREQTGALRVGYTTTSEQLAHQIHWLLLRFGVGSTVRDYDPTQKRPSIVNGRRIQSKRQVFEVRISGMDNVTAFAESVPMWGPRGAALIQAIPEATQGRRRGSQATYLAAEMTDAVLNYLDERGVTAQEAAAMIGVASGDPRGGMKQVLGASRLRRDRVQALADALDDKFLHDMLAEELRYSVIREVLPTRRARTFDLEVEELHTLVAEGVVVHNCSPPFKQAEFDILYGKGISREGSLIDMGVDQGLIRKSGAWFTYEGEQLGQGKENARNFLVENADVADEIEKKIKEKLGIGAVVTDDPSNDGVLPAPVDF
Arbovirus inh: arbovirus infection inhibition. arbovirus infection cell-based antiviral screen. inhibition, % at 10 µM. 200,000 tested, 0.37% active. AID 1251;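 active = inhibition from about 30%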;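 also: bluetongue infection of BSR cells; cell survival read as ATP light after 72 h; 0% = infected wells without compound and 100% = uninfected wells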
Arbovirus inh repeat: recorded beside Arbovirus inh, whose call it bears; inhibition, %; measured here: 10K subset replicate screen; many hits read low in the repeat;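 first of two repeat runs on a subset; 0% = infected and 100% = uninfected wells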
Starred values were filed as active, the others as inactive; ? = inconclusive; · = no result given.

SMILES	Mtb betalactam	Mtb growth	YopH PTP inh	RecA splice inh	Arbovirus inh	others
CCCCCOc1ccc(NC(=O)C(=O)NCCC2=CCCCC2)cc1	4.2	12.1%	17.3	-1.5	2.2
CC1CN(C(=O)COC(=O)c2cccc(NS(=O)(=O)c3ccccc3)c2)CC(C)O1 (stereo not given)	-12.6	·	·	0.7	·
CN(CC(=O)Nc1cc(Cl)cc(Cl)c1)Cc1cccs1	1.3	·	·	10.8	·
CSc1nnc2c(n1)[nH]c1c(C)cccc12	-4.3	-5.2%	-54.3	-0.7	-6.5
COC(=O)c1ccc(NC2CC(=O)N(c3ccccc3C)C2=O)cc1 (stereo not given)	-1.0	1.3%	-10.3	-1.0	1.4
CCCCn1cnc2sc3c(c2c1=N)CCCC3	?	-2.2%	-28.8	-2.0	9.5
O=C1CSC(c2ccccc2)N1c1ccccc1F (stereo not given)	5.9	·	·	2.5	·
O=C(CNC1CCCCCC1)Nc1ccc(N2CCCC2)cc1	7.7	·	-20.9	-3.0	-3.9
CC(C)c1ccc(OCc2nnc(SCC(=O)N3CCCCC3)o2)cc1	20.2	·	·	1.6	·
CC(=O)Nc1cc(-c2ccccc2)nn1Cc1ccc(Cl)cc1	-6.3	4.6%	-31.4	3.0	4.4
Cc1ccc(C)c(C(=O)CSc2nc(C)cc(=O)[nH]2)c1	-0.6	·	·	-0.8	·
COc1cccc(OCc2cc(C(=O)N(C)C3CC(C)(C)NC(C)(C)C3)no2)c1	-5.4	·	·	-2.9	·
CCOC(=O)N1CCC(=NNc2ncc(C(F)(F)F)cc2Cl)CC1	1.1	-2.2%	·	-8.5	8.8
O=c1[nH]c([N+](=O)[O-])nn1C(c1ccccc1)c1ccccc1	-0.4	·	·	1.6	·
CC(c1ccccc1)C(CC(=O)O)C(=O)Nc1ccc(Cl)c(Cl)c1 (stereo not given)	3.2	·	·	-0.2	·
C[C@H](NC(=O)OC(C)(C)C)C(=O)N/N=C/C1=Cc2ccccc2OC1	-0.9	5.9%	·	·	·
CCOc1ccc(CN(C)CC(=O)Nc2cc(OC)c([N+](=O)[O-])cc2C)cc1	2.4	0.7%	-17.9	-0.6	-8.3
COc1ccc(C(=O)CSc2nnc(Cn3nnc4ccccc43)n2C)cc1	12.6	-10.0%	3.7	-0.7	-3.6
CC1CC(C)CN(C(=O)C2CCC(CNS(=O)(=O)c3ccccc3)CC2)C1 (stereo not given)	-4.8	·	·	1.2	·
Cc1cccc(-n2ncc3c2CCCC3NC(=O)CC(F)(F)F)c1C (stereo not given)	-7.7	·	·	1.5	·

Brought forward from above: 5 entries, then new ones.
SMILES	Mtb betalactam	Mtb growth	YopH PTP inh	RecA splice inh	Arbovirus inh	others
C[C@H](NC(=O)OC(C)(C)C)C(=O)N/N=C/C1=Cc2ccccc2OC1	-0.9	5.9%	·	·	·
CCOc1ccc(CN(C)CC(=O)Nc2cc(OC)c([N+](=O)[O-])cc2C)cc1	2.4	0.7%	-17.9	-0.6	-8.3
COc1ccc(C(=O)CSc2nnc(Cn3nnc4ccccc43)n2C)cc1	12.6	-10.0%	3.7	-0.7	-3.6
CC1CC(C)CN(C(=O)C2CCC(CNS(=O)(=O)c3ccccc3)CC2)C1 (stereo not given)	-4.8	·	·	1.2	·
Cc1cccc(-n2ncc3c2CCCC3NC(=O)CC(F)(F)F)c1C (stereo not given)	-7.7	·	·	1.5	·
O=C(Cn1cnc2c(nnn2Cc2ccc(F)cc2)c1=O)N1CCN(c2ccccc2)CC1	-6.0	·	-20.5	-4.7	-8.9
CCOC(=O)c1ccccc1NC(=O)Cn1cnc2c1c(=O)n(C)c(=O)n2C	-4.4	-7.5%	-28.9	-0.8	-2.2
NC1=NS(=O)(=O)NC1c1ccc(Br)cc1 (stereo not given)	-5.0	-5.4%	·	0.9	4.7
CCn1cc(C2=NC(C(C)C)CO2)c2ccccc21 (stereo not given)	0.5	5.1%	0.2	-0.6	5.7	Arbovirus inh repeat=11.1
CCOc1ccc(S(=O)(=O)NCCC(=O)N2CCN(c3ccccc3O)CC2)cc1	-3.9	·	·	-6.8	·
CC(C)c1onc(C(=O)N2CCCCC2)c1[N+](=O)[O-]	9.0	3.7%	-11.9	0.1	1.8
Cc1cccc(NC(=O)CSc2nnc(CNC(=O)c3ccc(S(=O)(=O)N(C)C)cc3)n2-c2ccc(F)cc2)c1	3.9	1.7%	-25.8	1.5	-0.4
Cc1ccc(N(C(C)C(=O)N2CCN(Cc3ccccc3)CC2)S(C)(=O)=O)cc1 (stereo not given)	-6.2	·	·	-0.9	·
O=[N+]([O-])c1ccc(N/N=C\c2cccn2-c2ccccc2)nc1	85.5	·	-36.9	0.9	-17.6
CC1(S(=O)(=O)O)CC(=O)c2ccccc2C1=O (stereo not given)	67.2	·	·	93.2*	·
COc1cc(NC(=O)Cn2cnc(S(=O)(=O)N3CCCC3)c2)cc(OC)c1OC	-3.1	·	·	1.8	·
COc1cc(OC)c(C(=O)NNC(=O)CN(C)S(=O)(=O)c2ccc(Cl)cc2)cc1OC	-8.2	·	·	-1.6	·
O=C(NCCCN1CCOCC1)c1cc(S(=O)(=O)N2CCN(c3ccccc3)CC2)ccc1Cl	0.5	·	·	0.3	·
COc1ccc(CCNC(=O)c2ccc(N(C)S(=O)(=O)c3ccc(C)cc3)cc2)cc1OC	-3.9	3.6%	·	1.9	-1.0
COc1ccc(C(=O)NCC(=O)N2CCN(c3ccc(Cl)cc3)CC2)cc1	1.2	·	·	0.2	·
c1coc(-c2ccnc(-c3ccncc3)n2)c1	0.5	0.2%	·	0.4	-4.2
Cc1cccc(C)c1OCc1nnc(NC(=O)CSc2ccc(Cl)cc2)s1	-3.1	-2.6%	-18.9	4.1	-0.7
Cc1noc(C(=O)N2CCN(Cc3ccc4c(c3)OCO4)CC2)c1Cl	2.3	·	·	0.0	·
Cc1onc(-c2c(Cl)cccc2Cl)c1C(=O)NNC(=O)c1c(-c2c(Cl)cccc2Cl)noc1C	-4.4	1.1%	·	0.1	·
CC(C)CCn1c(N)c(C(=O)NCc2cccs2)c2nc3ccccc3nc21	2.7	-0.8%	13.7	88.1*	-17.2
Cc1ccc(OCCC(=O)OCC(=O)Nc2ccc3c(c2)OCO3)cc1	11.3	·	·	2.6	·
CCCc1cc(C(=O)N2CCCC(CO)(CCCc3ccccc3)C2)n(C)n1 (stereo not given)	4.8	·	·	4.7	·
CC(=O)NNC(=O)c1ccncc1	-0.8	-18.1%	-2.5	-0.7	-10.5
CSc1nsc(SC)c1C(=O)N1CCN(S(=O)(=O)c2ccc(C)cc2)C1C (stereo not given)	-3.2	1.4%	-17.8	0.9	11.5
CCOCCc1nnc(NC(=O)c2cccs2)s1	-0.5	-4.3%	-25.3	-1.9	1.1
CCCC(C(=O)NCc1ccc(OC)cc1)N(Cc1ccco1)C(=O)c1snc(C(N)=O)c1N (stereo not given)	1.6	2.6%	-20.2	1.7	-7.3
Cc1ccc(NC(=O)C2CCCN2C(=O)OCc2ccccc2)cc1F (stereo not given)	21.9	·	·	-0.2	·
CC(C)(C)C(=O)C[n+]1ccccc1	0.2	-4.1%	·	1.4	2.5
COCCN(CCOC)S(=O)(=O)c1ccc(C(=O)NCCCN2CCOCC2)cc1	-10.7	-5.4%	-37.2	-0.9	1.5
CCOC(=O)c1cc2c(ccn2C)n1CC(=O)N(CC)CC	0.2	0.8%	·	5.1	-4.0
Cc1cccc(NC(=O)c2nc[nH]c2C(=O)NCC(=O)OC(C)(C)C)c1	36.8	76.1%	·	-3.8	·
COc1cc(/C=N/NC(=O)NC2CCCCC2)ccc1O	22.5	-1.8%	·	-6.9	·
COc1ccc(C(C)NC(=S)NC2CCCCC2)cc1OC (stereo not given)	-7.5	·	·	0.3	·
Cc1cc(OCCCn2ccnc2)cc(C(C)C)c1	4.8	1.9%	·	10.0	6.4
CCOc1ccccc1/C=N\Nc1cnn(Cc2ccccc2)c(=O)c1Cl	-5.3	11.2%	·	2.6	-14.7
COc1ccc(C(=O)COC(=O)CCCC(=O)NC2CCCCC2)cc1	-0.3	·	·	-1.1	·
O=[N+]([O-])c1ccc2nonc2c1Nc1ccccc1	9.8	·	·	-0.3	·
COc1ccc(C(=O)NCCn2nc(C)cc2C)cc1OC1CCN(C(C)=O)CC1	-2.8	·	·	2.5	·
COc1ccc(C(C)=O)cc1CN(C)C	-6.2	-16.6%	21.8	-0.8	-1.3
COc1cc(NC(=O)NCC2CCN(Cc3ccccc3F)CC2)cc(OC)c1	1.7	·	·	-0.4	·
Cc1ccsc1/C=N/NC(=S)NCc1ccccc1	-1.4	2.5%	·	1.6	-0.1
CCCCNC(=O)/C(C#N)=C/c1ccc(-c2ccc(S(=O)(=O)N3CCOCC3)cc2)o1	-2.1	0.2%	-21.9	-0.9	-20.4
COc1ccc(NC(=O)COC(=O)C2=COCCO2)cc1OC	1.8	-5.5%	·	0.2	3.1
COc1ccc(C(=O)N/N=C/c2ccc(N3CCOCC3)o2)cc1OC	-5.8	-1.4%	·	1.6	3.0
COc1cccc(NS(=O)(=O)c2ccc3c(c2)N(C(C)=O)CCS3)c1	-7.4	·	·	0.1	·
COP(=O)(OC)c1nc(-c2cccc3ccccc23)oc1N1CCCCC1	5.5	6.5%	·	-19.8	-2.7
COc1ccc(CC(C)NCCc2ccc(OC)c(OC)c2)cc1 (stereo not given)	-1.8	·	·	1.6	·
CCC(C)[C@@H](CN(N=O)[C@@H](Cc1ccccc1)CN(C)N=O)N(CCc1ccccc1)N=O (stereo not given in full)	-5.4	-11.6%	·	6.9	-0.8
OCCN(CCO)Cc1csc2ccccc12	4.2	-1.6%	-21.9	-0.9	6.1
Cn1c(=O)c2c(nc(CN3CCC(C(N)=O)CC3)n2Cc2c(Cl)cccc2Cl)n(C)c1=O	-7.5	-2.7%	-36.6	-3.2	6.4
The list continues.
SMILES	Mtb betalactam	Mtb growth	YopH PTP inh	RecA splice inh	Arbovirus inh	others
CN(C)c1ccc(/C=N\Nc2nc(-c3ccccc3)cc(=O)[nH]2)cc1	-4.3	3.2%	-28.4	-2.9	-0.8
Cc1cccc(C)c1NC(=O)CN(C)CC(=O)Nc1cc(Cl)ccc1C#N	3.9	0.9%	15.6	1.2	-3.4
O=c1[nH]c(=S)[nH]c(O)c1/C=C1/C=c2ccccc2=N1	-1.1	·	·	-1.2	·
NC(=O)c1ccc(N=Cc2c(O)n(Cc3ccco3)c(=O)[nH]c2=O)cc1	-9.5	·	·	1.9	·
CC1CCN(S(=O)(=O)c2cc3c4c(c2)C(C)C(=O)N4CCC3)CC1 (stereo not given)	1.7	·	·	-2.9	·
CC1CCN(S(=O)(=O)c2cnc(Cl)c(Br)c2)CC1	5.3	3.7%	0.2	3.7	-3.1
CCN(CC)S(=O)(=O)c1ccc(C)c(NC(=O)COC(=O)[C@@H]2CCCN2C(=O)c2cccs2)c1	-2.4	2.1%	·	2.9	-10.4
CCOC(=O)N1CCN(C(=O)CCc2cc(OC)c(OC)c(OC)c2)CC1	-1.9	·	·	-0.2	·
Cn1c2ccccc2c2cnn(CC(=O)Nc3cccc(F)c3)c(=O)c21	-6.1	-0.1%	·	-1.2	·
CC(Cc1ccccc1)NC(=O)CN1CCCC1=O (stereo not given)	6.1	-0.8%	-20.3	-0.7	2.3
Cc1cc(C)cc(Nc2ccc(C(=O)O)cc2N)c1	8.7	-9.2%	-32.4	6.4	-6.7
Fc1ccccc1CSc1nnnn1-c1ccc2c(c1)OCO2	-3.1	3.1%	-13.9	4.4	-4.5
CCCCN(C(=O)CCCc1nc2ccccc2s1)c1c(N)n(CCCC)c(=O)[nH]c1=O	-7.2	·	·	-2.3	·
O=C(NC1=NCCS1)c1cc(-c2ccc(-c3ccccc3)cc2)nc2ccccc12	3.4	12.6%	-47.1	6.3	1.8
O=C(Nc1nc2ccccc2s1)C1=NN(c2ccccc2)C(=O)CC1	1.0	4.2%	-24.4	2.1	21.1
CCc1ccc(/C=C2\SC(=S)N(CCC(=O)NC3=NCCS3)C2=O)cc1	2.6	-1.7%	·	1.3	-2.1
COc1ccc(-c2nnc(SCC(=O)N3CCOCC3)o2)cc1OC	?	-5.9%	-19.1	0.3	0.3	Arbovirus inh repeat=-1.6
COc1ccc(NC(=O)COC(=O)c2ccc(NS(=O)(=O)/C=C/c3ccccc3)cc2)cc1	5.8	8.1%	-7.9	-1.1	5.4
Cc1cc(C)n2nc(C(=O)N3CCCC(Nc4ccc(F)c(F)c4)C3)cc2n1 (stereo not given)	-22.2	·	·	-1.6	·
Cc1cccc(NC(=O)c2cc(NC(=O)c3ccco3)ccc2N2CCCCC2)c1	-3.0	-1.0%	-65.9	-4.5	-12.3
COc1ccc(C(CC(=O)c2ccccc2)C2CCCCC2=O)cc1 (stereo not given)	11.4	·	8.3	0.9	2.0
CCOc1cccc(C(=O)N/N=C/c2coc3ccccc3c2=O)c1	-3.0	·	·	3.7	·

An excerpt; the hit share may differ from the screen's.
